VDR inh: vitamin D3 receptor (human) inhibition; VDR-SRC2-3 peptide fluorescence polarization, 2 h; Potency, µM, for inactives: max response, negative = inhibition, actives largely listed as inhibitors; 400,000 tested, 0.93% active; active = well fitted inhibition curve with a large enough effect; inconclusive = small, poorly fitted or top-dose-only effect, or another doubt; inactive = no such curve, though single readings can be large or run the other way; note: series mostly up to about 120 µM
Target sequence (P11473 whole entry, looked up): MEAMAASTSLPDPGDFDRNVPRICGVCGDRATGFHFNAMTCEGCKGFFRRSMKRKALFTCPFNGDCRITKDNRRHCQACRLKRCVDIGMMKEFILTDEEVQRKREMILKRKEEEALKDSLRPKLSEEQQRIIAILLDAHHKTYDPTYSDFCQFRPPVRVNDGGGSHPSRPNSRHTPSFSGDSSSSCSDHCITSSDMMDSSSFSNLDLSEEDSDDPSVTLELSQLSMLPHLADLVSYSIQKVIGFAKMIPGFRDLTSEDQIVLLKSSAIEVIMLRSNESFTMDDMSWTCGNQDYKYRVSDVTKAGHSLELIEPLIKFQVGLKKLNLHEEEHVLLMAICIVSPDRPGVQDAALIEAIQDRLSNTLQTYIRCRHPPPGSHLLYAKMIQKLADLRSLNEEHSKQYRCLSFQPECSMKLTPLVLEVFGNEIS
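Two reagent solutions held at 4 deg C in the dark were dispensed, compounds pinned at 23 nl, and the mixture incubated 2 h at room temperature. Read-out: fluorescence polarization of VDR–SRC2-3 peptide binding.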
* hit, by the source's call; & = joins results of further samples. % is set by controls: 0 for no effect and ±100 for the full control effect; potency is the fitted concentration of half-maximal effect.

Results for Cc1ccc2cc3cc(C(=O)NCCCN4CC(C)CC(C)C4)oc3nc2c1 (centres undefined) ?
VDR inh: 3%

How did COCCOC(=O)C1=C(C)NC2=C(C(=O)CC(c3cccs3)C2)C1c1ccsc1 (centres undefined) do in these assays?
VDR inh: -7%

What do the screens show for `CS(=O)(=O)Nc1cccc(-c2ccc3ncnc(NCc4cccnc4)c3c2)c1`?
VDR inh: -2%

What do the screens show for `C=CCSc1nc2ccccc2[nH]1`?
VDR inh: 9%

What do the screens show for `COc1cc(CNC(=O)c2sc3ncccc3c2-n2cccc2)cc(OC)c1OC`?
VDR inh: 0%

What do the screens show for `COc1ccc(-c2ccc(C)cc2)cc1C1C2C=CCCC2(C)C(=O)N1Cc1ccccc1` (centres undefined)?
VDR inh: 2%

Results for CCOc1ccc(NC(=O)CNc2cccc(S(=O)(=O)N3CCCCCC3)c2)cc1OCC ?
VDR inh: -5%

How did O=C(OCc1cccc([N+](=O)[O-])c1)c1cc2ccccc2oc1=O do in these assays?
VDR inh: -8%

Results for Cn1ccc2cc(OCc3ccccc3)ccc21 ?
VDR inh: 4%

What do the screens show for `Nc1cc(=O)[nH]c(SCC(=O)N2CCN(S(=O)(=O)c3ccc4ccccc4c3)CC2)n1`?
VDR inh: -14%

Results for O=C1CC(c2nc(-c3ccccc3)no2)CN1c1ccccc1 (centres undefined) ?
VDR inh: 9%

How did CC(=O)Oc1cc(C(C)C)c(OCCN(C)C)cc1C do in these assays?
VDR inh: 4%&-6%&4%

Results for CC(C)CC1CCCC12NC(=O)NC2=O (centres undefined) ?
VDR inh: 16%

How did COc1ccc(C)cc1NC(=O)c1cnc2n(c1=O)CCS2 do in these assays?
VDR inh: -4%

Results for Cc1cc(-c2n[nH]c(=S)n2/N=C/c2sccc2C)n[nH]1 ?
VDR inh: -23%

Results for CC1CC(C)CN(CC(=O)N2CCc3[nH]c4ccccc4c3C2)C1 (centres undefined) ?
VDR inh: -6%

How did CN1CCN(c2ccc(-c3nc(-c4ccccc4)no3)cc2[N+](=O)[O-])CC1 do in these assays?
VDR inh: 8%

What do the screens show for `O=C(Cn1c(-c2cccs2)cc2ccccc21)NCCCN1CCN(c2cccc(Cl)c2)CC1`?
VDR inh: 10%

Results for CCN(CC(=O)Nc1ccc(NC(C)=O)cc1)C(=O)c1ccc(N2C(=O)c3ccccc3C2=O)cc1 ?
VDR inh: 6%

Results for COc1ccc2oc(-c3ccc(C)c(NC(=O)c4cccnc4)c3)nc2c1 ?
VDR inh: 1%

How did COc1ccc(-c2nn(-c3ccccc3)cc2C(=O)NC(=S)NNC(=O)c2ccncc2)cc1 do in these assays?
VDR inh: -5%

What do the screens show for `CCN(C[C@H]1N[C@@](Cc2ccccc2)(C(=O)OC)[C@H]2C(=O)N(Cc3ccccc3)C(=O)[C@@H]12)C(=O)Nc1ccc(C)cc1`?
VDR inh: 11%

How did CCn1c(=S)sc2nc(C)sc21 do in these assays?
VDR inh: inconclusive

Results for COc1cccc(C(=O)Nc2nnc(S(=O)(=O)Nc3cccc(C)c3)s2)c1 ?
VDR inh: -16%

What do the screens show for `O=[N+]([O-])c1ccc(Oc2ccc(S(=O)(=O)Nc3ccccc3)cc2)cc1`?
VDR inh: -8%

How did CN(C)CCCN(Cc1cc2cc3c(cc2[nH]c1=O)OCO3)C(=S)NCc1ccco1 do in these assays?
VDR inh: -8%

What do the screens show for `O=[N+]([O-])c1nn(-c2ccc3c(c2)OCCO3)n(O)c1=Nc1ccc(Cl)cc1`?
VDR inh: -13%

What do the screens show for `Cc1cccc(NC(=O)CCS(=O)(=O)c2ccc(Br)cc2)c1`?
VDR inh: -3%

Results for COC(=O)c1ccccc1NC(=O)Nc1cccnc1 ?
VDR inh: -14%

What do the screens show for `CCOc1ccc(CNS(=O)(=O)c2cc(CN3C(=O)c4cccnc4C3=O)ccc2OC)cc1`?
VDR inh: 3%

How did COc1cc(/C=C(/C(=O)c2cccs2)c2nc3ccccc3[nH]2)ccc1O do in these assays?
VDR inh: inconclusive

What do the screens show for `O=C(Nc1ccccc1)Oc1cccc2cccnc12`?
VDR inh: -9%

How did CC(C)(C)CC(C)(C)c1ccc(O)c(CN2CCN(CCC#N)CC2)c1 do in these assays?
VDR inh: 2%

How did Cc1ccc(CCNC(=O)C2CCN(c3nn4c(=O)cc(C)nc4s3)CC2)cc1 do in these assays?
VDR inh: 4%

Results for O=C(OCC(=O)c1ccc[nH]1)c1ccc(F)c(S(=O)(=O)N2CCOCC2)c1 ?
VDR inh: 0%

How did Cc1ccc(C)c(NC(=O)C(Sc2ncnc3ccccc23)c2ccccc2)c1 (centres undefined) do in these assays?
VDR inh: -16%

Results for CC(C)C(OC(=O)c1ccc(Cl)nc1)C(=O)NC1CCCCC1 (centres undefined) ?
VDR inh: -2%

Results for COC(=O)c1nnn(-c2nonc2N)c1-c1cccs1 ?
VDR inh: -15%

Results for Cn1c(N)c(C(=O)COC(=O)C2=COCCO2)c(=O)n(C)c1=O ?
VDR inh: -7%

Results for O=C(NCc1ccc(OC(F)(F)F)cc1)C1CC(c2cccc(F)c2)=NO1 (centres undefined) ?
VDR inh: -4%

Results for COc1ccc(Cl)cc1S(=O)(=O)NCc1ccncc1 ?
VDR inh: 17%

What do the screens show for `Cc1ccc(C)c(S(=O)(=O)Nc2ccc(C(=O)N3CC(C)OC(C)C3)cc2)c1` (centres undefined)?
VDR inh: 4%

What do the screens show for `CCOc1ccccc1-c1nc(CN2CCCN(C(=O)c3ccco3)CC2)c(C)o1`?
VDR inh: 10%

Results for O=C(Cc1ccc(Br)cc1)N/N=C/c1cccnc1 ?
VDR inh: 12%

Results for CNc1nc(NC)nc(-n2c(C(F)(F)F)nc3ccccc32)n1 ?
VDR inh: 0%

What do the screens show for `Cc1ccc(C(=O)NCCN2C3=NC[C@H](Cc4ccc(O)cc4)N3C[C@H]2Cc2ccc(O)cc2)cc1Br`?
VDR inh: -13%

What do the screens show for `Cc1ccc(CSc2nc3ccccc3c3nc(CCn4c(C)nc5ccccc54)nn23)cc1`?
VDR inh: 21%

Results for Cc1oc2ccc(O)cc2c1C(=O)c1ccc(Br)cc1 ?
VDR inh: 2%

Results for Cc1ccccc1NC(=O)NNC(=O)CCc1ccccc1 ?
VDR inh: -10%

Results for COc1ccc(CC(=O)N2CCc3cc(OC)c(OC)cc3C2COc2ccc(F)cc2)cc1OC (centres undefined) ?
VDR inh: 10%

How did CCOC(=O)C1=C(C(F)(F)F)Nc2ncnn2C1c1cccc(OC)c1OC (centres undefined) do in these assays?
VDR inh: 13%&4%

How did COc1ccc(-c2cc(C(F)(F)F)n3nc(C(=O)NCC45CC6CC(CC(C6)C4)C5)cc3n2)cc1OC do in these assays?
VDR inh: 7%

How did CCC1=C(OC(=O)N(CC)CC)N2C(=O)OC(=NCCc3c[nH]c4ccccc34)[C@]2(C)[C@H]2C1=CC[C@H]1C(=O)N(CC)C(=O)[C@H]12 do in these assays?
VDR inh: -10%

Results for CCc1c(C)nc2[nH]nc(NC(=O)C(F)(F)F)n2c1=O ?
VDR inh: -7%

Results for CNC(=O)c1ccc2snnc2c1 ?
VDR inh: 4%

How did CCN1CCN(c2ncnc3sc4c(c23)CCC(C)C4)CC1 (centres undefined) do in these assays?
VDR inh: 14%

What do the screens show for `CC(C)(C)c1ccc(S(=O)(=O)NCc2ccc3c(c2)CCN3C(=O)c2ccccc2)cc1`?
VDR inh: -12%

Results for COc1ccc(/C=N\NC(=S)SCN2C(=O)C3CCC(C)(C2=O)C3(C)C)cc1 (centres undefined) ?
VDR inh: -3%

Results for O=C(NCCc1ccccc1)c1ccc(NC(=O)C2CC2)cc1 ?
VDR inh: -12%

What do the screens show for `C=CCc1cccc(C=NNC(=O)CN2CCN(Cc3ccccc3)CC2)c1O`?
VDR inh: -1%

How did COc1ccc(C(=O)NC2CCCN(Cc3ccccc3F)C2)c(OC)c1OC (centres undefined) do in these assays?
VDR inh: -14%

How did CCCc1nc(C)c2c(=O)[nH]c(-c3cc(S(=O)(=O)N4CCN(CC)CC4)ccc3OCC)nn12 do in these assays?
VDR inh: -3%&-17%

How did COc1ccc([C@@H]2CC=C(C(=O)O)[C@H](c3ccc(Br)cc3)N2S(=O)(=O)c2ccccc2C)cc1 do in these assays?
VDR inh: 1%

What do the screens show for `Cc1csc(NC(=O)c2cnc3ccccc3n2)n1`?
VDR inh: 2%

What do the screens show for `NC(=O)c1ccsc1NC(=O)CS(=O)(=O)c1ccc(F)cc1`?
VDR inh: 0%

How did Cc1nn(C)c(C(=O)Nc2ccn(C34CC5CC(CC(C5)C3)C4)n2)c1[N+](=O)[O-] do in these assays?
VDR inh: -18%

Results for CCOC(=O)C1CCN(C(=O)c2ccccc2NS(=O)(=O)c2ccc(C)cc2)CC1 ?
VDR inh: -1%

How did Cc1cccc(C)c1NC(=O)C1CC2CCC1C2 (centres undefined) do in these assays?
VDR inh: -18%

How did CCOC(=O)c1ccc(NC(=O)N2CCN(C(=O)C3CCCO3)CC2)cc1 (centres undefined) do in these assays?
VDR inh: 0%

Results for Cc1cccn2c(=O)c(C=O)c(N3CCN(c4ccc(F)cc4)CC3)nc12 ?
VDR inh: 15%

Results for Cc1ccc2c(c1)c1c(n2CC(O)Cn2c(C)nc3ccccc32)/C(=N\O)CCC1 (centres undefined) ?
VDR inh: 21%

How did COc1cccc(OCCOc2ccccc2[N+](=O)[O-])c1 do in these assays?
VDR inh: -9%

How did Cc1cccc(NC(=O)NNC(=O)c2cc3ccccc3cc2O)c1C do in these assays?
VDR inh: 2%

What do the screens show for `CCOC(=O)C1=C(C)NC(=O)NC1c1cn(-c2ccccc2)nc1-c1ccc(OC(C)C)cc1` (centres undefined)?
VDR inh: -1%

How did COc1ccccc1NC(=S)N1CCN(C(c2ccccc2)c2ccccc2)CC1 do in these assays?
VDR inh: inconclusive

What do the screens show for `CC(C)(C)OC(=O)C[C@@H]1C/C=C\C[C@@H](CC(=O)N[C@H](CO)Cc2ccccc2)C(=O)NC[C@@H](c2ccccc2)OC1=O`?
VDR inh: -12%

How did CCc1ccc(C2=CC(c3cc(Br)ccc3F)n3ncnc3N2)cc1 (centres undefined) do in these assays?
VDR inh: -7%

Results for CCc1nnc(NC(=O)c2ccc(-c3cc(C(F)(F)F)ccc3Cl)o2)s1 ?
VDR inh: 4%

Results for Cc1cccc(Nc2nnc(SCC(=O)NC(=O)CN3CCCC3=O)s2)c1 ?
VDR inh: 7%

What do the screens show for `COc1ccccc1CCNC(=O)CC1C(=O)NCCN1CCCc1ccccc1` (centres undefined)?
VDR inh: -4%

What do the screens show for `O=C(CCn1c(=O)sc2ccccc21)NCCC1=CCCCC1`?
VDR inh: 4%

Results for CCOC(=O)c1cccc(NC(=O)C(Cc2ccccc2)NS(=O)(=O)c2cccc3nsnc23)c1 (centres undefined) ?
VDR inh: -6%

What do the screens show for `CC(CC(=O)Nc1cccnc1)c1ccccc1` (centres undefined)?
VDR inh: -2%

Results for Cc1cccc(N2CCN(C(=O)CCC(=O)N3Cc4ccccc4Oc4ncccc43)CC2)c1C ?
VDR inh: 3%

How did O=C(/C=C/c1cccc2ccccc12)NCCC1=CCCCC1 do in these assays?
VDR inh: 4%

Results for CC(C)(C)c1ccc(-c2nc(SCCOc3ccc(Cl)cc3)n3[nH]c(=O)cc3n2)cc1 ?
VDR inh: 7%

What do the screens show for `Cc1ccccc1N(C(=O)CNC(=O)c1ccco1)C(C(=O)NC1CCCC1)c1ccncc1` (centres undefined)?
VDR inh: -10%

How did Cc1ccccc1N1C(=O)c2ccccc2N2C(=O)c3ccccc3C12 (centres undefined) do in these assays?
VDR inh: -5%

How did COc1ccccc1/C=C1\SC(=O)N(CC(=O)N(C)C2CCS(=O)(=O)C2)C1=O (centres undefined) do in these assays?
VDR inh: -10%

Results for Cc1ccc(NC(=O)NCc2cccn2Cc2ccccc2)c(C)c1 ?
VDR inh: -1%

Results for C=CCc1ccccc1OCC(=O)N/N=C/c1ccccc1OCC ?
VDR inh: -22%

In the list so far, 12 contain fluorine:
Results for O=C(OCC(=O)c1ccc[nH]1)c1ccc(F)c(S(=O)(=O)N2CCOCC2)c1 ?
VDR inh: 0%

Results for O=C(NCc1ccc(OC(F)(F)F)cc1)C1CC(c2cccc(F)c2)=NO1 (centres undefined) ?
VDR inh: -4%

Results for CNc1nc(NC)nc(-n2c(C(F)(F)F)nc3ccccc32)n1 ?
VDR inh: 0%

Results for COc1ccc(CC(=O)N2CCc3cc(OC)c(OC)cc3C2COc2ccc(F)cc2)cc1OC (centres undefined) ?
VDR inh: 10%

How did CCOC(=O)C1=C(C(F)(F)F)Nc2ncnn2C1c1cccc(OC)c1OC (centres undefined) do in these assays?
VDR inh: 13%&4%

How did COc1ccc(-c2cc(C(F)(F)F)n3nc(C(=O)NCC45CC6CC(CC(C6)C4)C5)cc3n2)cc1OC do in these assays?
VDR inh: 7%

Results for CCc1c(C)nc2[nH]nc(NC(=O)C(F)(F)F)n2c1=O ?
VDR inh: -7%

How did COc1ccc(C(=O)NC2CCCN(Cc3ccccc3F)C2)c(OC)c1OC (centres undefined) do in these assays?
VDR inh: -14%

What do the screens show for `NC(=O)c1ccsc1NC(=O)CS(=O)(=O)c1ccc(F)cc1`?
VDR inh: 0%

Results for Cc1cccn2c(=O)c(C=O)c(N3CCN(c4ccc(F)cc4)CC3)nc12 ?
VDR inh: 15%

How did CCc1ccc(C2=CC(c3cc(Br)ccc3F)n3ncnc3N2)cc1 (centres undefined) do in these assays?
VDR inh: -7%

Results for CCc1nnc(NC(=O)c2ccc(-c3cc(C(F)(F)F)ccc3Cl)o2)s1 ?
VDR inh: 4%

An excerpt; the hit share may differ from the screen's.
